D2 agonist = agonists of human D2 dopamine receptor (beta-arrestin); activation, % (test concentration not listed); P14416; DiscoveRx PathHunter D2 beta-arrestin, luminescence, 90 min; 100% = 57 uM dopamine signal; hit rate 0.084% among 360,000; in the data active = activation above about 40%; inconclusive = about 15% to 40%; inactive = below about 15%; further: compound concentration not given in the record; the text of the record calls up to 30% inactive
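DiscoveRx PathHunter D2 beta-arrestin cells (2,100/well) attached overnight, then compound-stimulated 90 min at 37 C in HBSS/10 mM HEPES/0.1% Tween-20 buffer; beta-galactosidase complementation read by luminescence after 1 h at ambient temperature. Dopamine 57 uM final (EC100) as control.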
TRPML1 blocker = human mucolipin-1 channel inhibition | activity change, negative = inhibition, % (concentration not given with the values) | hit rate 0.02% among 390,000 | Q9GZU1 | TRPML1-inducible cells, Ca2+ dye fluorescence, FDSS; active compounds read low; inhibition of EC80 agonist-evoked calcium signal; in the data active means activity change below about -50%; inconclusive means about -30% to -50%; inactive means above about -30%;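 further: stimulus is agonist 54-4 at its EC80 concentration; on the % scale 0 is the no-effect control and ±100 the full control effect; the text of the record puts the active cut at -80%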
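TRPML1-DL cells, Tet-induced overnight (~16 h, 37 °C) at 1,500 cells/well, were loaded with Ca8 no-wash dye plus quencher for 45-90 min at room temperature. Compounds were pinned during FDSS kinetic reading; agonist 54-4 at EC80 (4 uM final) then added.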
PINK1 expr mod = changes PINK1 expression | PINK1 immunofluorescence, high-content cytometry, 24 h | Potency, µM (highest dose often 76.6 µM), for the others: at the top dose activation (PINK1 increase), usual class: activators | hit rate 0.2% among 410,000 | AID 624263; active = well fitted activation curve with a large enough effect; inconclusive = small, poorly fitted or top-dose-only effect; inactive = flat fitted curve, though single readings scatter; cell line not stated here;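 further: potency means the concentration at half of the fitted maximal effect; % of control where 0% means no effect; nearly all actives have a fitted effect of over 65% in size; a mitochondrial uncoupler was the plate control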
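Decision-based qHTS: stable cells, 24 h exposure to five compound concentrations, CCCP as control. Fixed cells stained for PINK1 plus nuclear, mitochondrial and cell markers, cytometer read.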
D2 potentiator = human D2 receptor positive allosteric modulation; potentiation, % (no concentration beside the values); DiscoveRx D2 beta-arrestin cells, luminescence, 90 min; 100% = 57 uM dopamine signal; P14416; hit rate 0.23% among 360,000; active = potentiation of 50% or more; inconclusive = 30% to 50%; inactive = 30% or less;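 further: compound concentration not given in the record; tested on top of an EC20 dose of dopamine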
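PathHunter D2 cells, attached overnight at 37 deg C, received compound in DMSO plus dopamine at EC20 (50 nM final) for 90 min at 37 deg C. Beta-arrestin recruitment was read as luminescence after 1 h with detection reagent at ambient temperature.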
TRPML1 agonist = activates the human TRPML1 channel; AID 624414; hit rate 0.12% among 410,000; TRPML1-expressing cells, Ca2+ dye fluorescence, FDSS; host cell line not named in the record; reference of the full effect not given here; activation, % (no concentration beside the values); in the data active = activation above about 50%; inconclusive = about 30% to 50%; inactive = below about 30%; further: 0% is about no effect; the text of the record puts the active cut at 80%
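TRPML1-DL cells, Tet-induced overnight (~16 h, 37 degrees C), loaded 45-90 min at room temperature with Ca8 no-wash calcium dye plus quencher. FDSS fluorescence: 10 s baseline, compound pin-transfer, 110 s agonist read, then EC80 54-4 (4uM final) and 110 s antagonist read.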
Six1-Eya2 inh = Six1/Eya2 interaction inhibition; AlphaScreen GST-Six1/His-Eya2 binding, biochemical; active compounds read low; control for the full effect not named in the record; activity change, % (test concentration not listed); hit rate 0.56% among 360,000; AID 651725; in the data active = activity change below about -65%; inconclusive = about -30% to -65%; inactive = above about -30%; further: on the % scale 0 is the no-effect control and ±100 the full control effect
Target sequence (O00167 whole entry, looked up): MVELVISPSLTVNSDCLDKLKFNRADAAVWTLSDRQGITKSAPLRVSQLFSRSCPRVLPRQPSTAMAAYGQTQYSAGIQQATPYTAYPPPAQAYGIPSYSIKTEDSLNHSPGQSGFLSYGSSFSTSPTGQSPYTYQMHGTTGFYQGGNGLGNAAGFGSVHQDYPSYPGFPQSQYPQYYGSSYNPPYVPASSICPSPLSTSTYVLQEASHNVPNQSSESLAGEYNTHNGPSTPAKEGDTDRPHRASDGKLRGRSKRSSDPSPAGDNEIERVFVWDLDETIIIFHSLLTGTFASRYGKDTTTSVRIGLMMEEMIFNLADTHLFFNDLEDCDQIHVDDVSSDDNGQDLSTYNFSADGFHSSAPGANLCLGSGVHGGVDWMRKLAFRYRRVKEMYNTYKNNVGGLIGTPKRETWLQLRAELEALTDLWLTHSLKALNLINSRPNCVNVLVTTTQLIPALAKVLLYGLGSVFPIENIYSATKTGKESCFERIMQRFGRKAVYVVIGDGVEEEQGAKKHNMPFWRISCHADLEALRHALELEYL
Target sequence (Q15475 whole entry, looked up): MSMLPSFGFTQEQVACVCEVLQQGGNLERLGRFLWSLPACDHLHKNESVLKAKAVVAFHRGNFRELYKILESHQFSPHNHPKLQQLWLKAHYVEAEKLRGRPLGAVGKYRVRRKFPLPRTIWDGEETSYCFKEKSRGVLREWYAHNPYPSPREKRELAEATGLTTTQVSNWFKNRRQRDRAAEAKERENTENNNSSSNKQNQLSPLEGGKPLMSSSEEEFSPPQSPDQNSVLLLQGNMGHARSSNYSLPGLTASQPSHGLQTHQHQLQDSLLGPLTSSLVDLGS
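Six1/Eya2 binding was read as AlphaScreen signal after compounds were pinned into GST-Six1 plus His-tagged Eya2 (5X stock 250/500 nM) in pH 8.0 Tris/NaCl/TCEP buffer, beads added, then incubated 1 h, 37 C, dark.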
An asterisk follows results filed as active; ? = inconclusive; · = not tested or not shown; & = joins results of further samples; [ ] = dose if it differs, or a comment.

SMILES | D2 agonist | TRPML1 blocker | PINK1 expr mod | D2 potentiator | TRPML1 agonist | Six1-Eya2 inh
COC(=O)c1scc(S(=O)(=O)c2ccccc2)c1N | -3.1 | 34 | 2.6% | 0 | 0.8 | 8
Cc1ccn2c(=O)c(C(=O)NCc3ccccc3Cl)c(O)nc2c1 | · | -2 | 0.9% | · | -1.0 | ·
Cc1ccc(C)c(SCC(=O)Nc2nnc(-c3ccccc3)o2)c1 | -2.8 | -17 | -0.1% | 30 | 0.6 | -16
CC/C=C(\NC(C)=O)c1ccccc1 | -4.1 | -4 | 1.6% | -3 | 0.3 | 1
CC(=O)N1C(C(=O)O)Cc2c([nH]c3ccccc23)C1(C)C (configuration not stated) | 0.6 | -3 | 1.1% | 4 | -0.6 | 14
COCC(C)NC(=O)C1CC(=O)N(CCc2ccc(F)cc2)C1 (configuration not stated) | 0.0 | 9 | 0.1% | -7 | -0.6 | -9
CN(C)c1ccc(-c2nc(-c3ccco3)no2)cc1[N+](=O)[O-] | · | 2 | 1.7% | · | 1.3 | ·
COc1ccccc1C(=O)NCc1nnnn1-c1ccc(C)c(C)c1 | · | -9 | -0.6% | · | -0.2 | ·
COc1ccc(C(C)=O)cc1COC(=O)c1c(C)noc1C | -1.6 | 35 | 6.8% | -7 | -0.2 | 0
ON=C1c2ccccc2-c2ccc(Br)cc21 | 1.2 | -9 | -0.3% | 24 | 0.8 | -4
O=C(/C=C/c1cccs1)N1CCOCC1 | -3.6 | 1 | 0.8% | -9 | 1.4 | -9
COc1ccc(-c2nc(CS(=O)CC(=O)NCCC3=CCCCC3)c(C)o2)cc1 (configuration not stated) | 0.3 | 6 | 1.4% | -6 | -0.2 | 13
Cc1[nH]c(C)c(S(=O)(=O)NCC(C)c2ccccc2)c1C(=O)N1CCCCC1 (configuration not stated) | 2.3 | -7 | 0.0% | -6 | 0.3 | 2
N#Cc1c(N)n[nH]c1-c1cc2c([nH]1)CCCC2 | 4.4 | 0 | -4.1% | -4 | -1.0 | -2
COc1ccc(C2=CC(=O)C[C@H](c3ccc(Cl)cc3)C2)cc1 | -2.8 | 30 | 2.2% | -6 | 3.0 | 0
O=C(CCn1c(=O)[nH]c2ccsc2c1=O)N1CCN(c2cccc(Cl)c2)CC1 | -0.6 | -10 | -1.5% | -10 | 2.1 | -2
Cc1ccc(CNC(=O)CCS(=O)(=O)c2ccc(Cl)cc2)cc1 | -2.8 | -15 | -0.2% | -19 | 1.2 | -3
CC(C)OC(=O)C(C)Nc1ccc(F)c(Cl)c1 (configuration not stated) | -2.6 | 10 | 2.6% | -8 | 0.2 | 7
COc1ccc(NC(=O)CS(=O)(=O)Cc2nc(-c3ccc(C)cc3)oc2C)cc1 | -4.6 | 9 | 7.3% | -13 | -0.5 | 2
CCCCCCCCN1[C@@H](CC(=O)OCC)c2cc(F)ccc2S1(=O)=O | -4.3 | 10 | 3.5% | -9 | 1.3&0.0 | 34

Next section; it opens with the two that closed the last part.
SMILES | D2 agonist | TRPML1 blocker | PINK1 expr mod | D2 potentiator | TRPML1 agonist | Six1-Eya2 inh
COc1ccc(NC(=O)CS(=O)(=O)Cc2nc(-c3ccc(C)cc3)oc2C)cc1 | -4.6 | 9 | 7.3% | -13 | -0.5 | 2
CCCCCCCCN1[C@@H](CC(=O)OCC)c2cc(F)ccc2S1(=O)=O | -4.3 | 10 | 3.5% | -9 | 1.3&0.0 | 34
Cc1ccc(S(=O)(=O)N(C)c2ccc(C(=O)N3CCN(Cc4ccc5c(c4)OCO5)CC3)cc2)cc1 | 3.6 | 12 | -5.2%[38.3 µM] | -2 | 2.2 | -20
COc1ccc(/C=C/C(=O)N(Cc2cccs2)C2CCS(=O)(=O)C2)cc1 (configuration not stated) | -4.5 | 5 | 0.9% | -15 | 0.2 | -11
C=CCNC(=O)c1ccc(-c2ccc([N+](=O)[O-])cc2)o1 | 4.8 | 6 | -0.8% | 11 | -0.4 | 10
O=C(O)c1ccc(/C=N/N2CCN(c3ccccc3)CC2)cc1 | -3.2 | -17 | -1.6% | -4 | -0.6 | 7
Cc1onc(-c2c(Cl)cccc2Cl)c1C(=O)NNC(=O)c1c(-c2c(Cl)cccc2Cl)noc1C | -3.2 | 4 | 2.9% | -8 | -0.4 | -4
Cn1c(SCC(O)c2ccccc2)nnc1-c1ccc2ccccc2c1 (configuration not stated) | -1.3 | -23 | 0.4% | -28 | -0.9 | -2
CCCNC(=O)C1(C)CCCN(Cc2cc3ccccc3o2)C1 (configuration not stated) | -3.7 | · | 2.3% | -4 | -1.0 | 0
COc1ccc(-c2nnc3ccc(SCC(=O)N4CCCCC4)nn23)cc1OC | -2.4 | 1 | 2.8% | -7 | -0.7 | -15
COc1cc(=O)[nH]c(SC(C)C(=O)Nc2nc3c(s2)CCCC3)n1 (configuration not stated) | 0.7 | 21 | -0.6% | -5 | 0.6 | -1
O=C(Cn1cnc2c(cnn2-c2ccccc2)c1=O)N1CCN(c2ccc(F)cc2)CC1 | -0.1 | -7 | 8.2% | 4 | 0.1 | 11
Cc1cccc(NC(=O)Cn2c(=O)n(CCCS(=O)(=O)C3CCCCC3)c(=O)c3ccccc32)c1 | · | -13 | 9.1% | · | 1.7 | ·
CCOC(=O)/C(C#N)=C(C)/C=C1\Sc2ccccc2N1CC | 1.2 | 2 | ? | 1 | 52* | -8
Cn1c(/C=N/NC(=O)c2ccccc2)nc2ccccc21 | 1.4 | 3 | -1.5%[38.3 µM] | -24 | -0.7 | -8
COc1ccc(CC(=O)NCc2n[nH]c(=S)n2-c2ccc(Br)cc2)cc1 | 2.3 | 15 | -0.5% | -12 | 1.5 | -4
Cc1cc(C)c(NC(=O)CSc2nnc(SCC(=O)Nc3c(C)cc(C)cc3C)n2N)c(C)c1 | -0.7 | -11 | 0.0% | 1 | 1.2 | 1
COc1ccc(C(=O)/C=C/Nc2cc(C)ccn2)cc1 | 0.7 | 5 | 0.7% | -2 | 2.1 | -8
Cc1cccc(C)c1N=C1SC(CC(=O)Nc2c(C)cccc2C)C(=O)N1CCc1ccccn1 (configuration not stated) | -1.0 | -6 | 1.1% | -4 | 0.9 | 0
COc1ccc(CC(=O)Oc2ccccc2C)cc1S(=O)(=O)N1CCOCC1 | 0.8 | -8 | -1.0% | -9 | 0.1 | 7
Cc1cccc(NC(=O)CCc2ccc(S(=O)(=O)NC3CCCCC3)cc2)c1 | -0.5 | -1 | 1.1% | 2 | 1.3 | 17
CCOC(=O)C1C(=O)C=C(c2ccc(Br)cc2)CC1c1ccco1 (configuration not stated) | -3.2 | 26 | -0.6% | -15 | 2.5 | -1
O=S(=O)(c1ccccc1)N1CCN(c2nc(-c3cccnc3)nc3ccccc23)CC1 | -5.9 | 9 | 1.9% | 3 | 2.1 | -10
CCCOc1ccc(C(=O)OCC(=O)c2c(N)n(C)c(=O)n(C)c2=O)cc1OCC | -0.7 | 15 | 1.0% | -9 | -0.2 | 3
Cc1cccc(CN2C(=O)c3ccccc3Sc3ccc(C(=O)NCc4ccco4)cc32)c1 | · | 22 | 0.3% | · | 0.4 | ·
CC(=O)c1ccc(N2CCN(C(=O)CCN3C(=S)NC(C)(C)CC3C)CC2)cc1 (configuration not stated) | -0.3 | -5 | 0.6% | -2 | 0.0 | -5
Cc1cc(CNC(=O)COc2c(F)c(F)cc(F)c2F)c2ccccc2n1 | -3.2 | 19 | 4.9% | -4 | 1.0 | 3
CCn1nc(C)c(CN2CCCC(CO)(Cc3cccc(Cl)c3)C2)c1C (configuration not stated) | -4.9 | 35 | -1.0% | -22 | 0.0 | 0
Cc1cc(-c2ccc(C)c(S(=O)(=O)NCCC(C)N3CCCCCC3)c2)on1 (configuration not stated) | 1.1 | 5 | 0.4% | -8 | -0.3 | -8
COC(=O)C1CCN(C(=O)c2cc3c(=O)n4cccc(C)c4nc3n2Cc2ccccc2)CC1 | -5.8 | 14 | 9.0% | -1 | -0.5 | 5
CCN(c1ccccc1)S(=O)(=O)c1cccc(C(=O)NCc2cccnc2)c1 | 1.2 | 21 | 2.2% | 13 | 1.2 | 6
CC(C)(C)c1ccc(C(=O)NCCC(=O)Nc2ccc(S(=O)(=O)Nc3nccs3)cc2)cc1 | 0.2 | -18 | -0.5% | 24 | 0.5 | -9
C=CCn1c(NCc2ccccc2OC)nc2ccccc21 | -3.7 | · | 0.4% | -74 | · | 22
Cc1c(Cl)cccc1NC(=O)Nc1c[nH]c(=O)[nH]c1=O | · | 12 | 1.7% | · | 3.8 | ·
COc1ccc(S(=O)(=O)NNC(=O)c2ccccc2-n2cccc2)cc1 | 1.3 | 7 | 1.4% | -2 | -0.3 | 2
CCCC[C@@H]1CCCO[C@@](C(=O)NCc2cc(C)n(C)n2)(C(F)(F)F)C1 | -0.9 | 12&-10 | 2.0% | -23 | -0.8&0.0 | 3
O=C(COC(=O)c1cncc(Br)c1)NC1CCCCC1 | 0.2 | 16 | -0.3% | -2 | 0.2 | -1
S=C1NC[C@H](CC2CCCCC2)N1CCCCC1CCCCC1 | -2.2 | -2 | -1.9% | -7 | -0.4 | 4
Cc1ccc(C)c(S(=O)(=O)N(C)Cc2cccs2)c1 | -3.7 | 19 | 2.3% | -8 | 3.9 | 28
CCN1CCN(Cc2c(OC)ccc3ccccc23)CC1 | -2.8 | -7 | -4.5%[38.3 µM] | -20 | -0.8 | 1
O=C(NCCC1=CCCCC1)c1cc2c(s1)CS(=O)(=O)C2 | -1.3 | -7 | · | 0 | -0.5 | 1
Cc1nn(CC2CC2)c(=O)n1-c1ccc(Oc2ccccc2)cc1 | 2.9 | 12 | 3.9% | 6 | 0.0 | 0
O=S(=O)(/N=C(\c1ccccc1)N1CCOCC1)c1ccc(Cl)cc1 | 3.4 | 13 | 0.3% | -6 | -0.5 | -5
CCC(c1nnnn1-c1ccc2c(c1)OCCO2)N1CCN(c2ccc(C)cc2)CC1 (configuration not stated) | · | · | 0.3% | · | -0.9 | -28

Full records, quoted from the list:
Listed for COc1ccc(S(=O)(=O)NNC(=O)c2ccccc2-n2cccc2)cc1 : D2 agonist: 1.3; TRPML1 blocker: 7; PINK1 expr mod: 1.4%; D2 potentiator: -2; TRPML1 agonist: -0.3; Six1-Eya2 inh: 2
Listed for Cc1cccc(CN2C(=O)c3ccccc3Sc3ccc(C(=O)NCc4ccco4)cc32)c1 : D2 agonist: ·; TRPML1 blocker: 22; PINK1 expr mod: 0.3%; D2 potentiator: ·; TRPML1 agonist: 0.4; Six1-Eya2 inh: ·

A second format for part of the listing above:
Under each structure: D2 agonist, TRPML1 blocker, PINK1 expr mod, D2 potentiator, TRPML1 agonist, Six1-Eya2 inh
> Cc1cccc(CN2C(=O)c3ccccc3Sc3ccc(C(=O)NCc4ccco4)cc32)c1
 : ·, 22, 0.3%, ·, 0.4, ·
> COc1ccc(S(=O)(=O)NNC(=O)c2ccccc2-n2cccc2)cc1
 : 1.3, 7, 1.4%, -2, -0.3, 2

High-throughput results from PubChem BioAssay.
